Bead autofluor – counter-screen for toxin protease inhibitors: compound fluorescence; compound autofluorescence counterscreen, microsphere flow cytometry; stronger effect = higher value; fluorescence intensity (test concentration not listed); 360,000 compounds, 3.1% hits; AID 624483;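 active means at least 3 SD above the mean of all compounds, about 16000 in these data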;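 further: 100 nL of 1 mM stock went into each well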
Numbers without * were called inactive.

SMILES | Bead autofluor
CCc1nc2ccc(C(=O)N3CCN(C(C)=O)CC3)cn2c1N(CCC(C)C)CCN(C)C | 4420
Cc1noc(C)c1NC(=O)N(C)C[C@H]1OCCCC[C@@H](C)Oc2ccc(NS(=O)(=O)c3ccccc3)cc2C(=O)N([C@H](C)CO)C[C@@H]1C | 3574
Cc1ccc(Cl)cc1-c1cc(C(=O)NCc2ccccc2)[nH]n1 | 3496
Cc1ccc(CN2CCC[C@]3(N[C@H](c4ccccc4)[C@@H]4C(=O)N(C)C(=O)[C@@H]43)C2=O)cc1 | 4147
C[C@@H]1CN([C@H](C)CO)C(=O)CCCn2nncc2CO[C@@H]1CN(C)S(=O)(=O)c1ccc2c(c1)OCCCO2 | 3514
Cc1cc(C)cc(CC(=O)N2CCC2(C)C(=O)NS(=O)(=O)c2ccccc2)c1 (configuration not stated) | 4128
CC1(C(=O)NS(=O)(=O)c2ccc(Cl)s2)CCN1C(=O)Cc1ccccc1Cl (configuration not stated) | 4038
CCOC(=O)[C@@H](NC(=O)CC[C@H]1O[C@@H](n2ccc(=O)[nH]c2=O)[C@H](O)[C@@H]1O)C(C)C | 6039
CCOC(=O)C1(C)CCCN1C(=O)c1csnn1 (configuration not stated) | 3418
COC(=O)C1CCN(C2CN(Cc3ccc(C)cc3)S(=O)(=O)C2)CC1 (configuration not stated) | 4127
COc1ccc(-c2ccc3[nH]c4c(c3c2)CCN2C[C@H]3[C@H](C)ON(C)[C@H]3C[C@@H]42)cc1 | 2995
CCNC(=O)C1CCCN(Cc2ccc(OCc3ccccc3)cc2)CC1 (configuration not stated) | 4100
CC(C)(C)c1cc2nc(NCc3cccc(Cl)c3)ccn2n1 | 3339
CCCC#Cc1ccc2c(c1)O[C@H](CN(C)C(=O)CC1CC1)[C@H](C)CN([C@@H](C)CO)S2(=O)=O | 2813
CCCc1c(C(=O)N/N=C/c2ccc(C)o2)nnn1-c1nonc1N | 2971
CCCCn1nnnc1C1(C)CCC(=O)N1Cc1ccco1 (configuration not stated) | 4258
N#Cc1ccccc1S(=O)(=O)N1CCN(Cc2cccs2)CC1 | 4056
COc1cc(Cn2c3ccc(NC(=O)CC(C)c4ccccc4)cc3c(=O)n2C)ccc1F (configuration not stated) | 3947
CC1(C)CC(=O)C=C(c2ccc(COC(=O)c3ccc(-c4ccccc4)cc3)cc2)C1=O | 3719
C=C(C)Cn1c2ccc(NC(=O)NCCc3cccs3)cc2c(=O)n1C | 3696
CC(C)C1C(C#N)=C(N)Oc2c1c(=O)oc1ccccc21 (configuration not stated) | 3870
C[C@@H]1CN([C@H](C)CO)C(=O)CCCn2cc(nn2)CO[C@H]1CN(C)S(=O)(=O)c1ccc(Oc2ccccc2)nc1 | 3289
CC(=O)Nc1cccc(-c2ccnc3c2CC(C(=O)Nc2cccc(NS(C)(=O)=O)c2)O3)c1 (configuration not stated) | 3759
COc1ccc([C@@H]2C[C@H]3[C@@H](CN2S(=O)(=O)c2ccccc2)C(=O)C[C@@H](c2ccccc2F)N3S(=O)(=O)c2ccc(C)cc2)cc1 | 3071
CCN(CCN(C)C)C(=O)c1ccc2nc(C)c(N(C)C(=O)CCc3ccccc3)n2c1 | 3724
CC1(c2nnnn2Cc2ccccc2)CCC(=O)N1Cc1cccc(C(F)(F)F)c1 (configuration not stated) | 4114
O=C1NC[C@H](CCCCN2C[C@H](Cc3ccc(O)cc3)N(CCc3ccccc3)C(=O)C2=O)N(CCc2ccc(O)cc2)C1=O | 4323
O=C(CS(=O)(=O)Cc1ccccc1)c1ccccc1 | 3543
Cc1cccc(C)c1NC(=O)CNC(=O)c1ccc(N2CCOCC2)c([N+](=O)[O-])c1 | 4195
COc1cccc(CN(C)C(=O)c2ccc(S(=O)(=O)Nc3cccc(C)c3C)cc2)c1OC | 3808
FC(F)(F)c1ccccc1Cc1c(-c2ccc(Cl)cc2)nc2ccc(Br)cn12 | 5534
COc1cc2c(cc1OC(C)=O)C(=O)CCCC2 | 6063
COc1cccc(CN(C)CC(=O)N2CCN(S(=O)(=O)c3ccccc3)CC2)c1 | 3787
CCC1(c2ccccc2)CN(C)C1=O (configuration not stated) | 2860
CCOCCC(=O)Nc1ncc(S(=O)(=O)c2ccc([N+](=O)[O-])cc2)s1 | 4534
CCCNC(=O)C1(C)CCN(Cc2cc(-c3ccccc3)on2)C1 (configuration not stated) | 3688
CC(C)CC1C(=O)N(Cc2cn(CCC3OCCCO3)nn2)CCS(=O)(=O)N1Cc1ccc(-c2ccccc2)cc1 (configuration not stated) | 2805
O=C(C[C@H]1C[C@@H]2c3cc(NC(=O)c4cccnc4)ccc3O[C@@H]2[C@H](CO)O1)NCc1ccncc1 | 3295
CCOC(=O)N1CCN(C(=O)C[C@@H]2C[C@@]3(C(=O)OCC)CCC=C3N(Cc3ccccc3)C2=O)CC1 | 5944
O=[N+]([O-])c1ccc2[nH]ccc2c1 | 6222
COc1cc(Cl)cc(/C=N\NC(=O)c2ccc3c(c2)OCO3)c1O | 2889
C[C@H](O)[C@@H]1C(=O)N2CCc3ccc(N4CCN(C)CC4)cc3[C@@H]2C[C@@H]1N(C)C(=O)c1ccco1 | 3966
Cc1ccccc1C(=O)NNS(=O)(=O)c1ccc(F)cc1 | 2700
C[C@@H]1CN([C@H](C)CO)S(=O)(=O)c2ccc(Br)cc2O[C@H]1CN(C)C(=O)C1CCCCC1 | 3823
O=C1NCN(c2ccccc2)C12CCN(C(c1nnnn1Cc1ccccc1)C1CC1)CC2 (configuration not stated) | 5831
O=S1(=O)CC(N2CC=CC2)CN1Cc1ccc(F)cc1 (configuration not stated) | 4244
Cc1c(C(=O)NCCN(C)C)n(C)c(=O)c2ccccc12 | 6582
COc1cccc(-c2cnc(C(O)c3ccc(OC)c(F)c3)[nH]2)c1 (configuration not stated) | 2964
CCOC(=O)[C@H]1Nc2ccc(Cl)cc2[C@@H]2[C@H]1C1CC(c3ccccc31)N2C(=O)OCc1ccccc1 (some centres not stated) | 4371
CCc1nc2c(OCC(=O)C(C)(C)C)cccn2c1N(C)C(=O)c1ccc(C)cc1 | 3446
COc1ccc(C2CCc3cc4c(cc3C2=NOC(C)=O)OCO4)cc1OC (configuration not stated) | 2890
C[C@@H]1CN([C@@H](C)CO)C(=O)CCCn2cc(nn2)CO[C@H]1CN(C)C(=O)c1ccc2ccn(C)c2c1 | 3623
Nc1ncnc2c1ncn2[C@@H]1O[C@H](C(=O)N2CCSC2)[C@@H](O)[C@H]1O | 5589
C[C@H]1CN([C@@H](C)CO)C(=O)c2cc(C#Cc3cccnc3)cnc2O[C@H]1CN(C)Cc1ccc(F)cc1 | 3877
O=C(Nc1ccn(CCCNCC(c2ccccc2)c2ccccc2)c(=O)n1)OCc1ccccc1 | 3863
Cc1ccc(C(=O)N(CC(=O)NC2CCCC2)c2ccccc2F)s1 | 3132
CC(=O)Nc1ccc(CN2CCC(N3CCC(C(=O)NC4CC4)CC3)CC2)cc1 | 4041
COc1ccc(C(=O)c2ccccc2)cc1CN1CCOCC1 | 3891
Cc1cc(C)c2cc(N)c(Cl)nc2n1 | 6439
CCOC(=O)C1=CCC(c2ccc(F)cc2)N(S(=O)(=O)c2ccc(C)cc2)C1 (configuration not stated) | 6001

Not a retest: 14 of the compounds above.
SMILES | Bead autofluor
Cc1c(C(=O)NCCN(C)C)n(C)c(=O)c2ccccc12 | 6582
COc1cccc(-c2cnc(C(O)c3ccc(OC)c(F)c3)[nH]2)c1 (configuration not stated) | 2964
CCOC(=O)[C@H]1Nc2ccc(Cl)cc2[C@@H]2[C@H]1C1CC(c3ccccc31)N2C(=O)OCc1ccccc1 (some centres not stated) | 4371
CCc1nc2c(OCC(=O)C(C)(C)C)cccn2c1N(C)C(=O)c1ccc(C)cc1 | 3446
COc1ccc(C2CCc3cc4c(cc3C2=NOC(C)=O)OCO4)cc1OC (configuration not stated) | 2890
C[C@@H]1CN([C@@H](C)CO)C(=O)CCCn2cc(nn2)CO[C@H]1CN(C)C(=O)c1ccc2ccn(C)c2c1 | 3623
Nc1ncnc2c1ncn2[C@@H]1O[C@H](C(=O)N2CCSC2)[C@@H](O)[C@H]1O | 5589
C[C@H]1CN([C@@H](C)CO)C(=O)c2cc(C#Cc3cccnc3)cnc2O[C@H]1CN(C)Cc1ccc(F)cc1 | 3877
O=C(Nc1ccn(CCCNCC(c2ccccc2)c2ccccc2)c(=O)n1)OCc1ccccc1 | 3863
Cc1ccc(C(=O)N(CC(=O)NC2CCCC2)c2ccccc2F)s1 | 3132
CC(=O)Nc1ccc(CN2CCC(N3CCC(C(=O)NC4CC4)CC3)CC2)cc1 | 4041
COc1ccc(C(=O)c2ccccc2)cc1CN1CCOCC1 | 3891
Cc1cc(C)c2cc(N)c(Cl)nc2n1 | 6439
CCOC(=O)C1=CCC(c2ccc(F)cc2)N(S(=O)(=O)c2ccc(C)cc2)C1 (configuration not stated) | 6001

Carrying on:
SMILES | Bead autofluor
COc1cc(OC)c(C=Cc2ccncn2)c(OC)c1 | 4286
COc1cc(C=C2C(=O)C=CC2=O)ccc1O | 6237
CC1(C(=O)NS(=O)(=O)C2CC2)CCCN(C(=O)CSc2ccccc2)C1 (configuration not stated) | 3666
CN(C)c1ccc(-c2ccnc3c2CC(C)(C(=O)Nc2ccc(Cl)c(C(F)(F)F)c2)O3)cc1 (configuration not stated) | 2919
CCCCSCc1nc2nc(Cl)c(Cl)nc2[nH]1 | 4502
CC1(C)Oc2cc3oc(=O)ccc3c3c2C2C1CCC(C)(O3)C2O (configuration not stated) | 5461
CC1(Oc2ccc3ccccc3c2)CCN(Cc2cccn2-c2nccs2)C1 (configuration not stated) | 4031
COc1cccc(C(NC(C)=O)c2nc(-c3cccs3)cs2)c1 (configuration not stated) | 3978
COc1cccc(C(NC(C)=O)c2nc(-c3ccc4ccccc4c3)cs2)c1 (configuration not stated) | 3799
N#CCC1(O)C(=O)N(Cc2ccccc2)c2ccccc21 (configuration not stated) | 5589
CC(C)OCCCNC(=O)CN1C(=O)CSc2ccc(S(=O)(=O)N3CCOCC3)cc21 | 3595
C=CCNC(=O)CSc1nnc(-c2cccc(S(=O)(=O)N3CCOCC3)c2)o1 | 3897
CCCc1nc2c3ccccc3ccn2c1Cc1cccc(Cl)c1 | 6534
C[C@@H]1CN([C@@H](C)CO)C(=O)c2cc(C#CC(C)(C)O)cnc2O[C@@H]1CN(C)C(=O)c1ccccc1F | 3231
CC1=C(C(=O)N(C)C)CC(CC(=O)NCc2cccc3ccccc23)C(=O)N1CCCN1CCCC1=O (configuration not stated) | 3089
CCc1nc2c(OCc3ccccc3)cccn2c1N(Cc1ccccc1)C(C)=O | 3699
Cc1nc2c(OCc3ccc(C(F)(F)F)cc3)cccn2c1N(C)Cc1cccs1 | 3788
CC1(C(=O)NCCc2ccccc2)Cc2c(-c3cccc(C(N)=O)c3)ccnc2O1 (configuration not stated) | 3658
CC(CNC(=O)CC[C@H]1O[C@@H](n2ccc(=O)[nH]c2=O)[C@H](O)[C@@H]1O)c1ccccc1 (some centres not stated) | 6036
Cc1cccc(S(=O)(=O)NC(=O)C2(C)CCN2C(=O)c2ccccc2)c1 (configuration not stated) | 3897
Cc1ccccc1S(=O)(=O)N(C)C[C@H]1OCc2cn(nn2)CCCC(=O)N([C@@H](C)CO)C[C@@H]1C | 4308
CCC1(c2ccccc2)NC(=O)N(CC(=O)Nc2ccc3c(c2)CCC3)C1=O (configuration not stated) | 2996
C[C@@H]1CN([C@H](C)CO)C(=O)CCCn2nncc2CO[C@@H]1CN(C)C(=O)C1CCCCC1 | 3729
CC(=O)c1ccc(-c2cnc3c(NC=O)cc(-c4cccc(NS(C)(=O)=O)c4)cn23)cc1 | 4009
COc1ccc(C(=O)CSc2nc(=O)n3ccc(C)cc3n2)cc1 | 3677
CC[C@H](C)[C@@H](N)C(=O)NC[C@H]1O[C@@H](n2cnc3c(=O)[nH]c(N)nc32)[C@H](O)[C@@H]1O | 5913
CC1(C(=O)NS(=O)(=O)C2CC2)CCN(C(=O)c2ccccc2OC(F)(F)F)C1 (configuration not stated) | 3662
Cc1ccccc1OCC(=O)OCC(=O)NC1CCCC1 | 3828
CCCNC(=O)C1(C)CCCN(C(=O)c2c(C)noc2C)C1 (configuration not stated) | 3880
O=C1CCC2(CCCC2)c2ccccc21 | 2898
C=CCn1c(SCC(=O)N2CCN(C(=O)OCC)CC2)nc2c([nH]c3ccccc32)c1=O | 3388
O=C(Cn1ccc(=O)[nH]c1=O)Nc1nccs1 | 2925
N#Cc1csc(CCNC(=O)c2ccccc2)n1 | 3455
Cc1cccc(S(=O)(=O)NC(=O)C2(C)CCN2C(=O)Cc2ccsc2)c1 (configuration not stated) | 3807
Cc1cccc(C)c1-n1nnnc1C(c1cc2ccccc2o1)N1CCC(n2c(=O)[nH]c3ccccc32)CC1 (configuration not stated) | 5816
CN(C)CCNC(=O)c1cccc(-c2cccc3nncn23)c1 | 4027
Cc1cccc(C)c1Cn1c(C)c(C(=O)NCc2ccc(C#N)cc2)sc1=O | 4324
COc1cccc(C(NC(C)=O)c2nc(/C=C/c3ccccc3)cs2)c1 (configuration not stated) | 2918
COc1ccc(S(=O)(=O)N2CCC(C(=O)N[C@@H](C)C(=O)N3CCCC3)CC2)cc1 | 3580
CC1=C(C(=O)N2CCCCCC2)CC(CC(=O)NC2CCCC2)C(=O)N1Cc1ccccc1 (configuration not stated) | 5587
CC1C(=O)N(Cc2cn(Cc3ccco3)nn2)CCS(=O)(=O)N1Cc1ccc(-c2ccc(F)cc2Cl)cc1 (configuration not stated) | 5945
Cc1ccc(S(=O)(=O)N2[C@@H](c3cccc(Cl)c3)C(C(=O)OC(C)(C)C)=CC[C@H]2c2ccc(C(C)C)cc2)cc1 | 4536
O=C(Nc1cccc2c1CCCC2)c1cc(C2CCCCN2C(=O)c2cccs2)on1 (configuration not stated) | 3303
Cc1ccc(N(CC(=O)N2CCCCCC2)S(C)(=O)=O)c(C)c1 | 2969
NC(CCc1ccccc1)c1csc(NC(=O)Nc2cccc(C(F)(F)F)c2)n1 (configuration not stated) | 2872
CC1(C2CC(=O)c3c(O)ccc(O)c3C2)OCCO1 (configuration not stated) | 3734
CC1(C(=O)NS(=O)(=O)c2cccc(C#N)c2)CCN1C(=O)Cc1cc(F)ccc1F (configuration not stated) | 3782
NNC(=O)CN1C(=O)C2(OCCO2)c2ccccc21 | 4029
CCCCCC[n+]1ccccc1/C=C/c1ccc(N(C)C)cc1 | 12394

Screens: PubChem, NMMLSC

This is a subset; rates above refer to the full screens.
